# High-throughput results deposited in PubChem BioAssay by National Center for Advancing Translational Sciences (NCATS).
# D2 PAM: human D2 receptor positive allosteric modulation; P14416; DiscoveRx D2 beta-arrestin cells, luminescence, 90 min; 100% = 57 uM dopamine signal; potentiation, % (concentration not given with the values); 360,000 tested, 0.23% active; active = potentiation of 50% or more; inconclusive = 30% to 50%; inactive = 30% or less;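 note: compound concentration not given in the record; tested on top of an EC20 dose of dopamine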
# Target sequence (P14416 whole entry, looked up): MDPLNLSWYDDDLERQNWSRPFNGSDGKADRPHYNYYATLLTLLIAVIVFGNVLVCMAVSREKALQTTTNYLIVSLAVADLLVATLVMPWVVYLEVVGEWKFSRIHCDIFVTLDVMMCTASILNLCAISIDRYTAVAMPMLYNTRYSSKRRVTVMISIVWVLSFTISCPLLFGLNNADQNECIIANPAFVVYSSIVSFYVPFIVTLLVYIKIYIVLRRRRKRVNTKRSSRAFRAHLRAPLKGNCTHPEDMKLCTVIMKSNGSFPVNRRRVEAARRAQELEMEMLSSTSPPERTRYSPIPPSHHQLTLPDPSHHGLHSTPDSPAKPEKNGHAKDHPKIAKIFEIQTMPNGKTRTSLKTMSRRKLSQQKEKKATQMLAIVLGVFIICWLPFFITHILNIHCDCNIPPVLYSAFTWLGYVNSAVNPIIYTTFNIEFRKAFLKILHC
#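 D2 cells co-treated with compound plus 50 nM dopamine (EC20) for 90 min at 37 deg C to detect potentiation. Beta-arrestin recruitment was read as enzyme-fragment luminescence after 1 h at ambient temperature. Full response was set by 57 uM dopamine.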
# D2 agonist: human D2 receptor agonism in beta-arrestin assay; DiscoveRx PathHunter D2 beta-arrestin, luminescence, 90 min; 100% = 57 uM dopamine signal; activation, % (concentration not given with the values); 360,000 tested, 0.084% active; in the data active = activation above about 40%; inconclusive = about 15% to 40%; inactive = below about 15%; note: compound concentration not given in the record; the text of the record calls up to 30% inactive
#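 Agonist mode: compounds alone added to overnight-plated D2 PathHunter cells for 90 min at 37 C, with 57 uM final dopamine (EC100) defining full response. Beta-arrestin recruitment detected by chemiluminescent reagent, read after 1 h at ambient temperature.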
# gsp antagonist: gsp mutant antagonism; gsp-mutant cells, cAMP HTRF, 30 min; control for the full effect not named in the record; Potency, µM (series often up to 76.9 µM), without a hit: at the top dose activity change, negative = inhibition, most hits filed as inhibitors; 340,000 tested, 0.4% active; AID 624288; active = falling curve of any shape with a large fitted effect; inconclusive = falling curve, mostly with a smaller effect; inactive = flat or rising curve; cell line not stated here;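 note: intracellular cAMP measured with PDE inhibitor Ro 20-1724 present during compound exposure; potency is the fitted concentration of half-maximal effect; % is set by controls: 0 for no effect and ±100 for the full control effect; nearly all actives have a fitted effect of over 65% in size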
#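 HTRF cAMP read-out (cAMP-d2 plus anti-cAMP antibody-K in lysis buffer, 30 min RT). Before lysis, cells are exposed to compounds with […] for 30 min at 37C in DPBS containing Ca/Mg, BSA and Tween 20.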
# Six1-Eya2 inh: inhibitors of human Six1/Eya2 interaction | Q15475+O00167 | AlphaScreen GST-Six1/His-Eya2 binding, biochemical; hits give low values; control for the full effect not named in the record | activity change, % (concentration not given with the values) | 360,000 tested, 0.56% active | AID 651725; in the data active = activity change below about -65%; inconclusive = about -30% to -65%; inactive = above about -30%; note: % is set by controls: 0 for no effect and ±100 for the full control effect
#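 AlphaScreen with GST-Six1 and His-Eya2 (5X mix: 250 nM and 500 nM), glutathione donor and nickel acceptor beads; buffer 50 mM Tris pH 8.0, 300 mM NaCl, 1 mM TCEP; 1 h at 37 C in the dark.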
# CtBP-E1A inh: CtBP/E1A binding inhibition. AlphaScreen GST-E1A/His-CtBP binding, 1536-well; hits give low values; control for the full effect not named in the record. 340,000 tested, 0.49% active. activity change, % (concentration not given with the values); in the data active means activity change below about -65%; inconclusive means about -30% to -65%; inactive means above about -30%; note: % is set by controls: 0 for no effect and ±100 for the full control effect
#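 AlphaScreen with 125 nM GST-E1A and 125 nM His-CtBP (5X stocks) in Tris pH 8.0, 300 mM NaCl, BSA, Tween 20, TCEP. Compounds preincubated 2 h at 37 deg C, then glutathione donor/nickel acceptor beads added for 1 h at 37 deg C in dark.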
# gsp agonist: gsp mutant agonism | gsp mutant cells, cAMP HTRF, 30 min; control for the full effect not named in the record | Potency, µM (titrated, usually from 76.9 µM), for the others: at the highest dose activation (cAMP increase), hits mostly activators | 340,000 tested, 0.13% active | AID 624287; active = well fitted activation curve with a large enough effect; inconclusive = small, poorly fitted or top-dose-only effect, or another doubt; inactive = no such curve, though single readings can be large or run the other way; cell line not stated here;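 note: phosphodiesterase inhibitor Ro 20-1724 added with compounds to block cAMP breakdown; potency is the fitted concentration of half-maximal effect; nearly all actives have a fitted effect of over 60% in size; about a fifth of the inactives were tested at one dose only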
#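 Cells stably selected in G418 were plated at 2000/well, grown 16-24 hr, then given compounds in DMSO with the PDE inhibitor […] (300 uM solution added) for 30 min at 37C; cAMP was read by HTRF.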
# * hit, by the source's call; ? = inconclusive; . = not tested or not shown; [ ] = remark or other dose.
gsp agonist,D2 PAM,gsp antagonist,Molecule,Six1-Eya2 inh,CtBP-E1A inh,D2 agonist
4%[15.4 µM],0,7%,CCOC(=O)C1=C(Nc2ccc(OC)cc2)OCC1=O,-15,0,0.7
8%,-9,-7%,O=S(=O)(Nc1nc2c(s1)CCCC2)c1ccc2ccccc2c1,-17,-11,1.5
?,-14,0%,CCN1CCN(c2ccc(S(=O)(=O)N3CCCCC3)cc2NC(=O)COc2ccc(Cl)cc2)CC1,-16,-3,0.7
-16%,-4,-35%,O=C(Nc1nnc(-c2ccccc2)s1)c1cccc(S(=O)(=O)N2CCOCC2)c1,3,2,-4.0
4%[15.4 µM],0,1%,CCOC(=O)N1CCN(C(=O)Nc2ccc(NC(=O)N3CCN(C(=O)OCC)CC3)cc2)CC1,6,0,-20
13%,-2,-17%,Cc1cccc(C)c1OC(=O)CN(c1ccc(Cl)cc1)S(C)(=O)=O,0,-1,-3.8
-7%,-9,-7%,Cc1ccc(CN2CC(C(=O)Nc3nnc(SCc4c(Cl)cccc4Cl)s3)CC2=O)cc1 (stereo not drawn),5,2,-1.2
15%,0,-28%,Cc1csc(NC(=O)Nc2cccc(Cl)c2)n1,-6,0,-2.9
.,.,2%,CC(C)(C)OC(=O)N1O[C@H]2CC1[C@@H]1[C@@H]2N=NN1CCc1ccncc1,2,6,-0.7
-36%[inhibitor],-12,7%,COc1ccc(S(=O)(=O)N2CCOCC2)cc1Cl,3,12,-2.1
-66%[inhibitor],-5,-18%,CCCc1cc(C(=O)N2CCN(C(c3ccccc3)c3ccccc3)CC2)no1,4,5,-2.3
?,-12,-13%,CCOc1ccc(NC(=O)C(CC)n2nc(C)c3c(C)n(-c4ccccc4)nc3c2=O)cc1 (stereo not drawn),-1,-3,0.3
-6%[15.4 µM],-1,-13%,O=C(OCCOc1ccc(Br)cc1)c1ccc(Cl)c(S(=O)(=O)N2CCOCC2)c1,2,10,-0.5
?,8,-11%,O=C(CCc1ccc(S(=O)(=O)N2CCOCC2)cc1)Nc1ccc(N2CCOCC2)cc1,0,-2,-2.9
1%,4,-1%,CC(=O)N1CCN(c2ccc(NC(=O)c3cccc(Cl)c3)cc2)CC1,4,5,-2.7
-22%[15.4 µM],2,-23%,CCCCOc1ccccc1NC(=O)c1scc2c1OCCO2,6,-5,1.5
22%,2,1%,CCOc1ccc2nc(N/C(N)=N/S(C)(=O)=O)nc(C)c2c1,-1,0,0.6
-9%,-7,14%,CCCCCN(C(=O)CCC(=O)OCC(=O)N1CCCCC1)c1c(N)n(CCCC)c(=O)[nH]c1=O,2,11,-4.4
-45%[inhibitor],10,16%,O=C(NCCOc1ccccc1)C1CCC(=O)N(CCCN2CCOCC2)C1 (stereo not drawn),-1,6,-0.7
10%,-4,.,COc1cc2c(=O)[nH]c3cc([N+](=O)[O-])ccc3c2cc1[N+](=O)[O-],-22,-20,0.5
7%[15.4 µM],-12,-11%,Cc1cccc(N2CC(O)(c3cccs3)[N+]3=C2CCCC3)c1 (stereo not drawn),4,5,-5.0
-50%[15.4 µM],6,-2%,O=C1NC(=O)c2cc([N+](=O)[O-])cc3cccc1c23,-11,-10,14
?,3,-17%,COc1ccc(-c2cc(=O)c3ccc(O)cc3o2)cc1,-13,1,-0.2
.,-6,.,CCCNC(=O)C1(C)CCN(C(=O)c2ccc(OC)cc2OC)C1 (stereo not drawn),0,4,-3.7
-14%,0,-3%,Cc1cc(OCC(=O)OCC(=O)NCC2CCCO2)ccc1Cl (stereo not drawn),2,.,-3.0
.,5,9%,O[C@@H](c1cc(C(F)(F)F)nc2c(C(F)(F)F)cccc12)[C@H]1CCCCN1,5,0,8.8
13%,3,?,Cc1ccc(SCc2c(C(=O)N/N=C/c3cccnc3)nnn2-c2nonc2N)cc1,0,-5,2.0
2%,0,11%,O=C(Nc1ccccn1)c1cccc(S(=O)(=O)N2CCOCC2)c1,21,1,0.3
.,-9,-12%,C/C=C1\COC(C(=O)NCc2ccccc2)(C(F)(F)F)C=C1C=C1CCCCC1 (stereo not drawn),11,7,-6.0
-27%,-4,-4%,COc1cccc(CNC(=O)CN(c2cc(C)cc(C)c2)S(=O)(=O)c2c(C)noc2C)c1,6,8,3.5
-28%,-10,3%,COc1ccccc1NC(=O)CSC1=NC(=O)C(Cc2ccccc2)C(=O)N1 (stereo not drawn),-11,-4,-3.1
?,-30,3%,N#Cc1ccccc1OCC(=O)N(C1CCCCC1)C1CCS(=O)(=O)C1 (stereo not drawn),4,6,-3.4
5%,-14,.,Cc1ccc(-n2ncc(-c3n[nH]c(=S)o3)c2N)cc1C,1,5,-0.4
0%,-52,-1%,O=C(c1ccc(OC2CCN(CCc3ccccc3)CC2)cc1)N1CCCC1,16,0,-5.5
-2%,1,0%[15.4 µM],CCOC(=O)NC(Nc1ccc(S(N)(=O)=O)cc1)(C(=O)OCC)C(F)(F)F (stereo not drawn),7,1,2.4
11%,27,?,Cc1nn(-c2ccccc2)c(C)c1/C=N/NC(=O)c1cc(C23CC4CC(CC(C4)C2)C3)[nH]n1,0,-4,1.9
.,-24,5%,CC(C)(C)C1CCC(=O)N(CCC#N)CC1 (stereo not drawn),0,5,7.3
3%,-6,11%,COCCCNC(=O)/C(C#N)=C/c1cccc(NC(=O)c2ccccc2Cl)c1,-1,-2,-0.5
6%[15.4 µM],-8,-88%,O=C(NCCc1ccc(Cl)cc1)C1CCN(S(=O)(=O)c2ccc(Br)s2)CC1,2,1,-2.1
24%,-9,0%,Cc1csc(N(C(=O)CCNC(=O)c2ccc([N+](=O)[O-])cc2)c2ccccc2)n1,-1,.,-4.3
23%,-11,-3%,COC(=O)Cn1cc(C(=O)c2cccs2)c2ccccc21,-1,3,-2.3
1%,7,-16%,COc1cc([N+](=O)[O-])ccc1NC(=O)CSc1nccn1C,1,-1,-0.8
.,.,1%,CCOC(=O)C1=C(C)c2ccccc2OC1C(=O)OCC (stereo not drawn),13,11,-1.0
25%[15.4 µM],-1,-4%,COc1ccccc1CNC(=O)COC(=O)c1ccc(C)c(S(=O)(=O)N2CCOCC2)c1,-2,9,-2.4
6%,-25,12%,CCc1ccc(CN2CCCC(CNC(=O)c3cc(OC)cc(OC)c3)C2)cc1 (stereo not drawn),-3,-1,-5.8
-26%,-8,6%,Cc1nc2ccc(NC(=O)c3ccco3)cc2nc1C,-2,-11,-4.3
18%,-9,.,COC(=O)c1ccc2c(=O)n(CCN3CCOCC3)c(SCC(=O)Nc3ccccc3OC)nc2c1,-8,-7,-1.8
?,-3,9%,O=C(O)CSc1ccc2nnc(-c3cccnc3)n2n1,-12,.,-5.4
-7%[15.4 µM],-1,9%,CCOC(=O)c1c(-c2ccc(C)cc2)csc1NC(=O)c1cc2ccccc2oc1=O,-2,13,0.8
-22%,6,-5%,Cc1ccc(Cn2c(O)c(N=O)c3ccccc32)cc1,-4,-6,1.1
-2%,-14,-9%,CC(C)CCNC(=O)c1cc2c(s1)-c1ccccc1S(=O)(=O)C2,-3,-5,-3.7
-16%,3,?,N#Cc1ccc(OCC(=O)N2CCN(S(=O)(=O)c3ccc(Cl)s3)CC2)cc1,3,6,-1.4
-37%[inhibitor],-7,7%,O=C(Cn1ncc2c(=O)oc3ccccc3c21)NCC1COc2ccccc2O1 (stereo not drawn),6,0,-0.4
19%[15.4 µM],-7,0%,Cc1c(Cl)cccc1NC(=S)N1CCN(Cc2ccc3c(c2)OCO3)CC1,5,-3,-5.6
9%,9,-10%,Cc1cccc(N2C(=O)C3C4C=CC(C4)C3C2=O)c1 (stereo not drawn),-1,5,-4.3
18%,-34,7%,COc1ccccc1CC(=O)Nc1ncc(C)s1,-6,.,-1.2
-23%,-7,11%,COc1ccc(OC)c(NC(=O)Nc2cnccn2)c1,-10,-19,-2.2
-12%,7,?,CC(C)c1ccccc1NC(=O)COC(=O)c1ccc(Cl)c(S(=O)(=O)N2CCCCCC2)c1,-2,-21,6.5
-10%,2,18%,Cc1csc(SCc2nnc(-c3ccc(Cl)cc3)o2)n1,7,1,-2.0
-1%,-1,-27%,O=C(N/N=C/c1c(Cl)cccc1Cl)c1n[nH]c2c1CCCC2,-12,.,3.3

# Next results follow.
gsp agonist,D2 PAM,gsp antagonist,Molecule,Six1-Eya2 inh,CtBP-E1A inh,D2 agonist
-17%,-1,-13%,COc1ccc(C(=O)Nc2ccc(C3(C#N)CCCC3)cc2)cc1OC,-14,2,-2.2
18%[15.4 µM],0,-3%,CCC(=O)Nc1nonc1-c1nc2ccccc2n1CC(C)C,-8,-2,-3.3
?,3,-1%,CCSc1nc2ccccc2n1CC(=O)N1CCOCC1,5,8,-4.9
-10%,1,2%,NNC(=O)CCS(=O)(=O)c1ccc2ccccc2c1,3,-1,-1.1
-8%,-2,-2%,CCN(CC)C(=O)c1c2c(nc3ccccc13)-c1ccccc1CC2,-2,-1,-2.6
.,-5,.,COc1ccc(-c2ccc(C(=O)NCc3ccc(F)c(F)c3)c3occc23)c(C)c1,7,0,8.7

# Sorted by length of the SMILES (smallest number first): 10 of the compounds above.
gsp agonist,D2 PAM,gsp antagonist,Molecule,Six1-Eya2 inh,CtBP-E1A inh,D2 agonist
?,3,-1%,CCSc1nc2ccccc2n1CC(=O)N1CCOCC1,5,8,-4.9
5%,-14,.,Cc1ccc(-n2ncc(-c3n[nH]c(=S)o3)c2N)cc1C,1,5,-0.4
.,-6,.,CCCNC(=O)C1(C)CCN(C(=O)c2ccc(OC)cc2OC)C1 (stereo not drawn),0,4,-3.7
-1%,-1,-27%,O=C(N/N=C/c1c(Cl)cccc1Cl)c1n[nH]c2c1CCCC2,-12,.,3.3
3%,-6,11%,COCCCNC(=O)/C(C#N)=C/c1cccc(NC(=O)c2ccccc2Cl)c1,-1,-2,-0.5
.,-9,-12%,C/C=C1\COC(C(=O)NCc2ccccc2)(C(F)(F)F)C=C1C=C1CCCCC1 (stereo not drawn),11,7,-6.0
10%,-4,.,COc1cc2c(=O)[nH]c3cc([N+](=O)[O-])ccc3c2cc1[N+](=O)[O-],-22,-20,0.5
24%,-9,0%,Cc1csc(N(C(=O)CCNC(=O)c2ccc([N+](=O)[O-])cc2)c2ccccc2)n1,-1,.,-4.3
?,-14,0%,CCN1CCN(c2ccc(S(=O)(=O)N3CCCCC3)cc2NC(=O)COc2ccc(Cl)cc2)CC1,-16,-3,0.7
11%,27,?,Cc1nn(-c2ccccc2)c(C)c1/C=N/NC(=O)c1cc(C23CC4CC(CC(C4)C2)C3)[nH]n1,0,-4,1.9
